GCN5L2 inh – qHTS Assay for Inhibitors of GCN5L2. Potency, µM (doses to about 58.9 µM), for inactives: at the highest dose activity change, negative = inhibition, usual class: inhibitors. Histone acetyltransferase KAT2A (Homo sapiens), Q92830. GCN5L2 HAT assay, ThioGlo1 CoA-SH fluorescence. 390,000 compounds, 0.21% hits
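GCN5L2 (20nM final) in 50mM HEPES, 0.1mM EDTA pH 7.5, 0.01% Tween-20 was preincubated 15 min at room temperature with compound, then given ThioGlo1 (50uM), H3(1-25) peptide (75uM) and acetyl-CoA (70uM); CoA-thiol fluorescence (Ex340/Em540) was read at 0 and 20 min.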
FEN1 inh – qHTS Assay for the Inhibitors of Human Flap endonuclease 1 (FEN1); P39748; 390,000 compounds, 0.35% hits; Recombinant FEN1 flap cleavage, fluorescence, 15 min; Potency, µM (top dose mostly 114 µM), for the others: top-dose activity change, negative = inhibition, hits mostly inhibitors; note: nearly all actives have a fitted effect of over 65% in size
Target sequence (P39748 whole entry, looked up): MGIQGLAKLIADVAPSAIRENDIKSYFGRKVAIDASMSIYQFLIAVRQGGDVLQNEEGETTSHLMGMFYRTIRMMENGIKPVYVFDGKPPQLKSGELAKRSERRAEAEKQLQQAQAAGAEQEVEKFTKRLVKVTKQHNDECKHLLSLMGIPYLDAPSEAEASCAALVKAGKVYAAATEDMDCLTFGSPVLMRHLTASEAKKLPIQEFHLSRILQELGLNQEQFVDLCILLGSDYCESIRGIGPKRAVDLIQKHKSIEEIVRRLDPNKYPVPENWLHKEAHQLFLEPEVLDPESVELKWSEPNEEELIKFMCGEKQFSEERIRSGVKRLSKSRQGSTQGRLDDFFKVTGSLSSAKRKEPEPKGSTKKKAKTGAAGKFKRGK
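Compounds are tested as a concentration series against 10 nM FEN1; after a 15 min room-temperature preincubation, 50 nM substrate starts cleavage, with plate reads at 0 and 15 min. Normalized responses are fitted by a Hill equation.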
* hit, by the source's call; ? = inconclusive; / = no result given; [ ] = another dose, or the depositor's remark. Calls come from the whole dose curve; as a rule, active = well fitted curve in the direction sought with a large enough effect; inconclusive = small, poorly fitted or top-dose-only effect, or another doubt; inactive = no such curve, though single readings can be large; an effect the other way counts as inactive or inconclusive. % is set by controls: 0 for no effect and ±100 for the full control effect; potency is the fitted concentration of half-maximal effect. Some of the compounds tested; most or all hits stand in other tables.

SMILES	GCN5L2 inh	FEN1 inh
CC(=O)NC(Cc1ccccc1)C(=O)NC1CCN(c2ncccc2[N+](=O)[O-])CC1 (configuration not stated)	-7%	-2%
O=C1OC(CO)C(O)C(O)C1O (configuration not stated)	-6%	/
CCc1ccc(OCC(=O)NNC(=S)NC(=O)C2CC2)c(Br)c1	-2%	-10%
Cc1nc2ccc(NC(=S)NC3CCCCC3)cc2nc1C	-22%	-17%
COc1cccc(NC(=O)CSc2nc3scc(C)c3c(=O)[nH]2)c1	2%	2%
CC(C)n1cnnc1SCC(=O)Nc1ccc(N2CCCCC2)cc1	0%	-1%
CCC(C(=O)NC1CCCC1)N(C(=O)c1snc(C(N)=O)c1N)c1ccc2c(c1)OCCO2 (configuration not stated)	-2%	2%
Cc1ccc(S(=O)(=O)N2CCCC2c2nc3ccccc3s2)cc1 (configuration not stated)	-5%	-10%
CCOC(=O)C1CCCN(c2c(N3CCc4ccccc4C3)c(=O)c2=O)C1 (configuration not stated)	-2%	/
Cc1ccc2[nH]c(=O)cc(C(=O)OC(C)C)c2c1	-9%	19%
COc1ccccc1N1CCN(C(CNS(=O)(=O)c2ccccc2)c2cccnc2)CC1 (configuration not stated)	-6%[0.501 µM]	-2%
CCOC(=O)Cc1csc(NC(=O)CSc2nc(C)cc(=O)[nH]2)n1	-21%	-15%
COc1ccc(CC(NC(C)=O)C(=O)NC2CCN(c3ncccc3[N+](=O)[O-])CC2)cc1 (configuration not stated)	-1%	-7%
CCOC(=O)CNC(=O)CSc1ncnc2c1cnn2Cc1ccccc1	-6%	12%
O=C(COC(=O)Cn1cnc2ccccc2c1=O)NCc1ccccc1	-6%	0%
CCOc1ccc(Oc2nc(N(CC)CC)nc(N3CCOCC3)n2)nn1	-1%	-3%
C=CCc1ccccc1OCC(=O)NNC(=S)NCc1ccccc1	-1%	-7%
C=CCOc1c2ccc(C(=O)NC3CCCc4ccccc43)cc2nn1C (configuration not stated)	-11%	-1%
CCc1cc(=O)oc2cc(OCC(=O)N(CC)CC)c(Cl)cc12	-8%	-4%
COc1cc(C(=O)OC2CCCCC2=O)cc(OC)c1C (configuration not stated)	-3%	4%
CC(C)NC(=O)NC(=O)COC(=O)c1ccc([N+](=O)[O-])cc1Cl	0%	16%
COc1ccc(N2CCN(C(=O)Cc3ccc(Br)cc3)CC2)cc1	-4%	-15%
O=C1OC(Cc2ccccn2)C(=O)C1=C1SCCS1 (configuration not stated)	-3%	-4%
Cc1onc(-c2ccccc2)c1CNC(=O)Nc1ccc(C(F)(F)F)cc1	-3%	-6%
CCCCCc1cc(=O)[nH]c(=S)[nH]1	29%	19%

Retrieved one by one from the entries so far, 4 records:
SMILES	GCN5L2 inh	FEN1 inh
CCc1ccc(OCC(=O)NNC(=S)NC(=O)C2CC2)c(Br)c1	-2%	-10%
CCCCCc1cc(=O)[nH]c(=S)[nH]1	29%	19%
CC(=O)NC(Cc1ccccc1)C(=O)NC1CCN(c2ncccc2[N+](=O)[O-])CC1 (configuration not stated)	-7%	-2%
COc1ccc(CC(NC(C)=O)C(=O)NC2CCN(c3ncccc3[N+](=O)[O-])CC2)cc1 (configuration not stated)	-1%	-7%

The listing continues.
SMILES	GCN5L2 inh	FEN1 inh
CCc1nnc(NC(=O)NC(C)(C)C)s1	0%	0%
CCCCOC(=O)C1C2C=C[C@]3(CN(C(C)c4ccc(OC)cc4)C(=O)[C@H]13)O2 (some centres not stated)	0%	15%
Cc1cccc(CS(=O)(=O)Cc2ccc(C(=O)NCc3cccs3)o2)c1	-11%	0%
COc1ccccc1CNc1nc(-c2ccccc2OC)nc2ccccc12	-16%	/
COc1ccc(CCNC(=O)C2CCCN(S(=O)(=O)c3ccc(OC)cc3)C2)cc1 (configuration not stated)	-2%	-3%
Cc1ccc(C(=O)NNC(=O)CSc2nnc(-c3ccccc3)n2Cc2ccccc2)cc1	1%	6%
N#Cc1c(-c2ccc(Cl)cc2)ccn2nc(CCC(=O)O)nc12	/	-6%
CC(NC(=O)Nc1ccccc1)c1ccccc1 (configuration not stated)	-4%	1%
COc1ccccc1NC(=O)CN1C(=O)NC(C)(C)C1=O	-6%	-12%
Cc1noc(C)c1C(=O)N1CCC2(CCCN(C(=O)Nc3ccccc3)C2)CC1	7%	/
COC(=O)N[C@H](CC(C)=O)c1ccccc1	0%	/
Cc1ccc(C(=O)N2CCN(c3ccc(NC(=O)c4ccc(Br)o4)cc3)CC2)cc1	2%	-7%
O=C(c1cccnc1)N1CCN(CCCc2ccccc2)CC1	-6%	4%
CCSc1nsc(NC(=O)Nc2cccc(OC)c2)n1	-1%	-1%
CC(=O)c1cccc(N(CC(=O)N2CCOCC2)S(C)(=O)=O)c1	-17%	4%
CCCc1cc(=O)oc2cc(OCC(=O)NCCCN3CCOCC3)c(Cl)cc12	?	-7%
COc1ccccc1/C=C(/NC(=O)c1ccccc1)C(=O)NCCCn1ccnc1	-2%	-3%
O=C(CCCc1ccccc1)NCCS(=O)(=O)N1CCN(c2ccccc2F)CC1	-5%	11%
CCOC(=O)c1nn(-c2ccc(F)cc2)cc1O	-6%	-3%
CC(=O)c1ccc(NC(=S)NCC(c2ccco2)N2CCCC2)cc1 (configuration not stated)	0%	1%
COC(=O)c1cc(NC(=O)CN(C)Cc2ccccc2)cc(C(=O)OC)c1	-14%	-12%
Cc1ccc(NC(=S)Nc2cccc(S(=O)(=O)Nc3c(C)n(C)n(-c4ccccc4)c3=O)c2)cc1	-7%	4%
C=CCn1c(SCc2n[nH]c(=S)n2-c2ccccc2)nnc1-c1ccccc1	-2%	1%
CNC(=S)Nc1cccc(Cl)c1C	-3%	-11%
COc1ccccc1NC(=O)c1oc2ccccc2c1NC(=O)C1CC1	-9%	17%

Next part; the last 2 above are carried over.
SMILES	GCN5L2 inh	FEN1 inh
CNC(=S)Nc1cccc(Cl)c1C	-3%	-11%
COc1ccccc1NC(=O)c1oc2ccccc2c1NC(=O)C1CC1	-9%	17%
COc1ccc(-n2nnnc2SCC(=O)c2cc3ccccc3o2)cc1	-11%	-3%
CCOC(=O)c1[nH]c2cc(OC)c(OC)cc2c1NC(=O)CN(C)C1CCCCC1	-3%	-28%
CC(C)(C)c1ccc(/C=N/NC(=O)Cc2c[nH]c3ccccc23)cc1	-17%	?
Cn1c(=O)c2c(nc(Cl)n2CC(=O)N2CCCCC2)n(C)c1=O	-10%	-6%
COC(=O)c1ccc(OCC(=O)Nc2nn(-c3ccccc3)nc2C(N)=O)cc1	1%	2%
CCCn1c(N)c(N(CCOC)C(=O)c2ccc(F)cc2)c(=O)[nH]c1=O	-1%	3%
Nc1c(S(=O)(=O)c2ccccc2)csc1C(=O)O	3%	1%
CCc1ccc(C2c3[nH]c4ccccc4c3CCN2C(=O)CN2CCN(CC)CC2)cc1 (configuration not stated)	-10%	4%
CCO[C@@H]1OC(C(=O)Nc2ccccc2)=C[C@H](c2ccc(Br)cc2)[C@H]1CCCO	-2%	-13%
Cc1cccc(-n2c(CNC(=O)c3ccc(S(=O)(=O)N(C)C)cc3)nnc2SCC(=O)Nc2ccc(F)cc2)c1	-5%	-2%
O=P(c1ccccc1)(c1ccccc1)C(O)c1ccccn1 (configuration not stated)	-5%	0%
CCOC(=O)Cc1csc(NC(=O)CN2CCCCC2)n1	1%	4%
COc1cc([N+](=O)[O-])ccc1NC(=O)CN1CCN(C(=O)c2ccco2)CC1	-2%	1%
CCOC(=O)CNc1nnc(SCC(=O)OCC)[nH]c1=O	13%	8%
CC1CCN(C(=O)c2ccc3c(Cl)c4c(nc3c2)CCCC4)CC1	0%	-5%
CCOc1ccc(NC(=S)NC(=O)c2cccnc2)c([N+](=O)[O-])c1	9%	-5%
CC(=O)Nc1ccc(NC(=O)C(C)Sc2nc3ccccc3c(=O)n2CC2CCCO2)cc1 (configuration not stated)	3%	-10%
CC(=O)n1cc([C@H]2C=C(C(=O)N3CCN(Cc4ccc5c(c4)OCO5)CC3)O[C@@H](OCCCCO)C2)c2ccccc21	-3%	-4%
CN1C(=O)CC(N2CCN(c3ccc(Cl)cc3)CC2)C1=O (configuration not stated)	1%	-7%
CCC(C)N1CCCCC1C(=O)Nc1c(C)cc(C)cc1C (configuration not stated)	-4%	-3%
O=C(N/N=C/C1CC2C=CC1C2)c1ccccc1O (configuration not stated)	-3%	12%
CCC1CN(C(=O)N2CCC(C(=O)NCCc3ccccc3OC)CC2)c2ccccc2O1 (configuration not stated)	3%	15%
CC(C)(C)c1ccc(C(=O)NCc2ccccc2)cc1	-1%	2%
COc1ccc(S(=O)(=O)NCC(=O)NCc2cc(=O)n(C)c(=O)n2C)cc1	-16%	-14%
Cc1ccc(C(=O)c2cn[nH]c2-c2ccccc2O)cc1	-12%	-13%

4 compounds from above, ordered by number of heavy atoms, lowest first.
SMILES	GCN5L2 inh	FEN1 inh
O=C(N/N=C/C1CC2C=CC1C2)c1ccccc1O (configuration not stated)	-3%	12%
CCCn1c(N)c(N(CCOC)C(=O)c2ccc(F)cc2)c(=O)[nH]c1=O	-1%	3%
CCOC(=O)c1[nH]c2cc(OC)c(OC)cc2c1NC(=O)CN(C)C1CCCCC1	-3%	-28%
Cc1cccc(-n2c(CNC(=O)c3ccc(S(=O)(=O)N(C)C)cc3)nnc2SCC(=O)Nc2ccc(F)cc2)c1	-5%	-2%

Carrying on:
SMILES	GCN5L2 inh	FEN1 inh
CCOC(=O)C(C)Oc1ccc(OCc2ccccc2)cc1 (configuration not stated)	-4%	-19%
CCN(Cc1ccccc1)S(=O)(=O)c1c(C(=O)N2CCCC2)c(C)n(C)c1C	-4%	-3%
COc1ccccc1Nc1nnc(SCC(=O)Nc2nc(-c3ccc(F)cc3)cs2)s1	-16%	-4%
Cc1cc(C)c(C(=O)/C=C/c2cccs2)c(=O)[nH]1	-11%	-6%
CCCCCCSc1nc2c(c(=O)[nH]c(=O)n2C)n1C	-4%	1%
CCOC(=O)c1nc(N)c(=O)n(-c2ccccc2)n1	-6%	-5%
CC[N+](CC)(CC)CCC(O)(c1ccccc1)C1CCCCC1 (configuration not stated)	-13%	2%
CC(C)CCc1noc(CN(CC2CCC2)CC2CCCO2)n1 (configuration not stated)	0%	-6%
CCOC(=O)C1=C(CSc2nc(C)cc(C)c2C#N)OC(N)=C(C#N)C1c1ccccc1 (configuration not stated)	-2%	0%
CCCCCOc1ccc(C(=O)CCC(=O)Nc2ccc(NC(C)=O)cc2)cc1	-6%	-2%
COc1cccc(-c2nn(-c3ccccc3)cc2C(=O)NCC(=O)O)c1	-11%	-8%
COc1ccc(NC(C)=O)cc1NC(=O)CN1CCN(CC(=O)Nc2ccc(Cl)cc2)CC1	?	-1%
N#CCC(=O)N/N=C\c1cccc(OC/C=C/c2ccccc2)c1	-13%	13%
COc1ccc(OC)c(-c2csc(NC(=O)c3ccc(F)cc3)n2)c1	-4%	-7%
CCn1c(SCC(=O)Nc2ccc(N(C)C)cc2)nnc1-c1cccc(C)c1	-6%	-2%
CCc1cccc(NC(=O)Cc2cn(C)c3ccccc23)c1	-22%	-21%
NC(=O)N/N=C/c1cccc(OCc2ccc(F)cc2)c1	-6%	-5%
CCNc1ncc2nc(-c3ccc(OC)cc3)c(=O)n(CCOC)c2n1	-18%	/
CN(Cc1nc2ccccc2n1C)S(=O)(=O)c1ccc(F)cc1	4%	8%
COc1ccc(NC(=O)COC(=O)c2cccc(S(=O)(=O)N(C)C)c2)cc1	1%	-7%
COc1ccc(-c2ccc(NCCN3CCOCC3)nn2)cc1OC	-7%	-4%
COc1ccc(C(CNc2ncnc3sc(C)c(C)c23)N(C)C)cc1 (configuration not stated)	-1%	-2%
CCn1cc(C(=O)N[C@@H](CCSC)C(=O)NCCCO)c(=O)c2cc3c(cc21)OCO3	-16%	20%
O=[N+]([O-])c1ccc2nc(-c3ccccn3)[nH]c2c1	-3%	?
N#CC(c1nc2ccccc2nc1N1CCCCC1)S(=O)(=O)c1ccc(Cl)cc1 (configuration not stated)	-6%	/

(list continues)
SMILES	GCN5L2 inh	FEN1 inh
CN(C(=O)COc1nnc(-c2cccs2)c(-c2cccs2)n1)c1ccccc1	-10%	0%
CC(C)(C)C(=O)NNC(=O)c1cnccn1	?	-2%
COc1ccc(S(=O)(=O)N2CCOCC2)cc1NC(=O)CN1CCC(Cc2ccccc2)CC1	-13%	13%
O=C1OCC/C1=C\c1ccc2c(c1)OCO2	-1%	-13%
CN(C)CCOC(=O)/C(=C/c1cn(C)c2ccccc12)NC(=O)c1ccccc1	-2%	?
O=C(Nc1nc2ccccc2[nH]1)c1cc2ccccc2o1	-3%	15%
COc1ccc(N(CN2C(=O)c3ccccc3C2=O)C(=O)COc2ccc(Cl)cc2Cl)cc1	-19%	-12%
CCCCCC(=O)N1CC2(C)CN(C(=O)CCCCC)CC(C)(C1)C2=O	-9%	7%
Brc1ccc(-c2nn3c(-c4ccco4)nnc3s2)o1	-3%	?
O=C(NCC1CCCO1)[C@@H]1CSC2c3ccccc3C(=O)N21 (some centres not stated)	-1%	-4%
O=C(NCCc1ccc(Cl)cc1)c1cccc(N2CCCC2=O)c1	-23%	-12%
CC(C)CC(=O)N1CCN(Cc2ccc3ccccc3c2)CC1	-6%	-9%

Screening results deposited in PubChem BioAssay by National Center for Advancing Translational Sciences (NCATS).
